Bioassay records from PubChem.
RanGTP-Impb inh: inhibitors of RanGTP-importin-beta interaction, primary screen, biochemical, FRET, CFP-Ran, YFP-importin-beta, homogeneous; cell-free CFP-Ran/YFP-importin-beta FRET ratio; inhibition, % (test concentration not listed); 300,000 tested, 1.1% active; AID 2216, 2009;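 active = most replicates above 15%; inconclusive = exactly half above 15%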;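 note: 0% = DMSO wells and 100% = Ran loaded with GDP instead of GTP; wells of about 40 µL received 100 nL stock; the first replicate is given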
Bfl-1 A1 inh: caspase 3/7 activation in MEF A1-2A-BIM cells, primary screen, A1 inhibitor project, cell-based, luminescence, HTS; caspase activation, % (no concentration beside the values); Caspase-Glo 3/7 luminescence, 3 h; percent of clofoctol response, vehicle zero; 330,000 tested, 0.066% active;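 active = over half of replicate activation scores above 10%, or exactly half above 10 with the replicate mean above 10; inconclusive = replicate mean below 10 yet half the replicates above 10; inactive = over half of replicates below 10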;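 note: wells of about 30 µL received 50 nL stock; many hits fall short of the cut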
Vif TR-FRET: inhibitors of Vif binding to APOBEC3G peptide, primary screen, biochemical, TR-FRET, GST-Vif 1-94, biotin-A3G peptide, dose response retest (AID 1117319); inhibition, %; hits with a dose series show IC50 in µM; TR-FRET GST-Vif / biotin-A3G peptide binding; higher % means a stronger effect; test concentration not given here; strong numbers were not always called active; Virion infectivity factor (Human immunodeficiency virus type 1 group M subtype B (isolate …; 260,000 tested, 0.57% active;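 active = above the screen mean plus three standard deviations and confirmed in dose response; inconclusive = results disagree or hit not tested in dose response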;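 note: Vif residues 1-94 fused to GST binding biotinylated APOBEC3G peptide 110-148; 0% = full assay without inhibitor and 100% = GST in place of GST-Vif; retest series ran down from 100 µM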
LANA-H2A inh: blockers of LANA interaction with H2A/H2B – biochemical, FP readout, HTS, primary screen; cell-free LANA-H2A/H2B peptide, fluorescence polarization; 320,000 tested, 0.6% active; inhibition, % (no concentration beside the values); Protein LANA1 (Human herpesvirus 8 type P (isolate GK18)), Q9QR71; in the data active = inhibition mostly above about 10%, no sharp cut-off; inactive = mostly below about 6.7%;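 note: stock transfer was 7.5 nL into about 10 µL; 0% = median of vehicle wells and 100% = median of positive control wells; one replicate is shown; the record names a cut of 25% in any replicate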
Target sequence (Q9QR71 whole entry, looked up): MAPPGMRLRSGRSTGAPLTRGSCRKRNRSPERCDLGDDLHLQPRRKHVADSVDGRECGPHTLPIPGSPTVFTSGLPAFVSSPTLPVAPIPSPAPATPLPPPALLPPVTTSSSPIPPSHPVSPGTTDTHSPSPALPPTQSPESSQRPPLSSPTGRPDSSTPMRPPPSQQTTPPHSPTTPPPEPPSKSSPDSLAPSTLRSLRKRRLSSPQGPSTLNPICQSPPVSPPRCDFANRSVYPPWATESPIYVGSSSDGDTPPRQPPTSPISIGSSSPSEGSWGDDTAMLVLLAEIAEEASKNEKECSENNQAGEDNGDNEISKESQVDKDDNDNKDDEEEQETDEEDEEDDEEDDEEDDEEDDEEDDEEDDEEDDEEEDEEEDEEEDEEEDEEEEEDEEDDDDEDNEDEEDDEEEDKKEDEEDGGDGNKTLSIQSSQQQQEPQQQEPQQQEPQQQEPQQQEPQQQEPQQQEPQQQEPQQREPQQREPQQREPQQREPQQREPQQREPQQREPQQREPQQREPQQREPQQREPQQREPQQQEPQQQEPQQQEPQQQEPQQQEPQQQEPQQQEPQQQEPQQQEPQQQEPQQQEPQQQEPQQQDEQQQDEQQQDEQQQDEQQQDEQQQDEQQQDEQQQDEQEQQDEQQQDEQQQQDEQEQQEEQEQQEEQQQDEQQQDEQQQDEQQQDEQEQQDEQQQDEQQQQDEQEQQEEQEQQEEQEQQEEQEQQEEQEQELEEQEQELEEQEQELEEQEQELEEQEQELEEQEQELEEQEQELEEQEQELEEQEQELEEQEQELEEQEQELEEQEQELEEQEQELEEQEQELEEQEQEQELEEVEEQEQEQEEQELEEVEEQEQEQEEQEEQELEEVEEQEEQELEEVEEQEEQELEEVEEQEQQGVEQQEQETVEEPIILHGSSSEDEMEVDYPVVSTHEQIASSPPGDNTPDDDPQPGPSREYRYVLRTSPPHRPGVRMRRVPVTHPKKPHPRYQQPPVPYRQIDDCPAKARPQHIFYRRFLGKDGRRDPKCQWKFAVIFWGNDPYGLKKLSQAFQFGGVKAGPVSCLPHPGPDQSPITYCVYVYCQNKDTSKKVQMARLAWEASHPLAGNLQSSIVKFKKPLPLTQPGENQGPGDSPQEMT
T cruzi repl: inhibitors of intracellular T. cruzi growth, primary screen, luminescence, NIH3T3 host cells; T. cruzi beta-gal in NIH3T3, 90 h; inhibition, % (concentration not given with the values); 300,000 tested, 1.4% active;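 active = mean inhibition across valid replicates above about 55%, limit read from the data; inconclusive = mean below that limit but half or more replicates reach it; inactive = mean below it, under half of replicates reach it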;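 note: signal also drops with host cell toxicity which is not excluded here; 0% = plate median of DMSO wells and 100% = zero luminescence signal; higher percent means less beta-gal luminescence so fewer parasites; stock transfer was 50 nL into about 50 µL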
Calb FLC: C. albicans growth inhibition with fluconazole, primary screen, CaCi-2 strain, Alamar Blue fluorescence. C. albicans CaCi-2 (fluconazole-resistant clinical isolate) + fluconazole, 48 h. 300,000 tested, 0.57% active. AID 1979, 2009. growth inhibition, % (concentration not given with the values);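 active = most replicates above 75%; inconclusive = exactly half above 75%; inactive = most below 75%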;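 note: all wells also contain fluconazole at 8 µg/ml as a sub-toxic cotreatment; 0% = median of DMSO wells and 100% = median of geldanamycin control wells; wells of about 8 µL received 7.5 nL stock; the first replicate is given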
MLL AF4-AF9 inh: inhibitors of AF4 peptide binding to AF9, primary screen, biochemical, AlphaScreen, biotin-AF4 peptide, FLAG-AF9, single point; inhibition, % at 10 µM; Protein AF-9 (Homo sapiens), P42568; 350,000 tested, 0.47% active;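 active = every replicate reaching a set inhibition limit, whatever the replicate mean, cut at about 25% in these data; inconclusive = mean inhibition reaches that limit but some replicates miss it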;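 note: 0% = plate neutral control median and 100% = total signal loss; the record names both 10 and 1 µM as test concentration; the first replicate is given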
Beta cell apopt: inhibitors of cytokine-induced beta cell apoptosis, primary screen, luminescence. INS-1E cytokine-induced death, ATP luminescence, 48 h; percent of positive-control rescue, neutral wells zero. protection from apoptosis, % (concentration not given with the values). 300,000 tested, 0.8% active;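 active = all replicates at 75% or more, or half of them and the mean; inconclusive = half reach 75% but not the mean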;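 note: 0% = cytokine-treated negative control wells and 100% = positive control rescue; higher means more ATP so stronger rescue from cytokine killing; wells of about 40 µL received 100 nL stock; the first replicate is given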
An asterisk follows results filed as active; ? = inconclusive; / = no result given; & = joins results of further samples.

molecule	RanGTP-Impb inh	Bfl-1 A1 inh	Vif TR-FRET	LANA-H2A inh	T cruzi repl	Calb FLC	MLL AF4-AF9 inh	Beta cell apopt
CCN(CC(=O)NCCc1ccc(S(N)(=O)=O)cc1)Cc1nc2cc(OC)c(OC)cc2c(=O)[nH]1	-0.8	0.1	16%	-4.1	6	-2	/	-9
CCOc1cc(S(=O)(=O)NCC2CCCO2)ccc1F (stereo not given)	1.8	2.2	/	-4.0	-8	6	0.2	2
C/C(CC(=O)NCc1ccco1)=N\NC(=O)Cc1cccc2ccccc12	4.0	0.1	15%	7.9	-7	-3	/	-3
Cc1ccccc1S(=O)(=O)Cc1ccc(C(=O)NCCCN2CCN(C)CC2)o1	0.9	-0.2	0%	-7.4	-17	9	/	-8
CC(=O)N(c1c(C)n(C)n(-c2ccccc2)c1=O)C1(C(=O)NC2CCCCC2)CCCCC1	-1.4	-0.5	-6%	4.0	-6	6	/	-1
COCCn1c(NCc2ccco2)nc2c1c(=O)[nH]c(=O)n2C	3.2	-0.5	/	3.7	-2	-8	-1.5	2
O=C(O)c1ccc2c(c1)S(=O)(=O)c1cc(Cl)ccc1C2=O	/	1.8	/	3.6	/	/	4.4	-2
COC(=O)C(C)N(C(=O)c1ccc(C(=O)c2ccccc2)cc1)c1c(C)cccc1C (stereo not given)	?	0.1	-1%	4.5	8	13	/	6
CC(C)C(C(=O)NCc1ccco1)N(Cc1ccco1)C(=O)CNS(=O)(=O)c1ccc(F)cc1 (stereo not given)	0.4	1.1	/	1.9	4	9	3.1	1
COc1ccc(-c2nc(SC(CC(=O)NCCO)c3cccs3)n[nH]2)cc1 (stereo not given)	2.0	0.6	-5%	-0.1	-5	1	-0.6	4
CCOC(=O)c1cc(-c2ccccc2)sc1NC(=O)CN1C(=O)NC(CC)(c2ccc(F)cc2)C1=O (stereo not given)	-4.9	-0.2	2%	1.8	60*	-6	/	6
CC(=O)/C(=N\Nc1ccccc1)Sc1nnc(-c2ccccc2)n1-c1ccccc1	2.3	0.4	/	-1.9	-2	21	/	-4
CCCCCc1ccc(-c2cn(Cc3ccc4ccccc4c3)nn2)cc1	5.3	-1.2	/	-0.3	7	-5	1.0	-7
CCOc1ccc(N=CNc2ccc(OCC)cc2)cc1	3.4	-0.2	/	-0.3	20	-1	5.8	-4
CCSc1nnc(NC(=O)CN2C(=O)NC3(CCCC3)C2=O)s1	/	-0.9	/	8.0	/	/	-2.0	-2
COC(=O)C(C)N1C(=O)S/C(=C/c2cc(C)n(-c3ccccn3)c2C)C1=O (stereo not given)	4.0	-0.9	4%	1.7	1	6	/	5
COc1ccc(COC(=O)C2CCN(S(=O)(=O)c3cccs3)CC2)cc1	-1.8	-0.1	-5%	1.1	-7	5	5.2	-5
C[C@H]1CN([C@@H](C)CO)C(=O)Cc2cc(NC(=O)C3CC3)ccc2O[C@H]1CN(C)Cc1ccc(C(=O)O)cc1	/	1.3	/	-4.3	/	/	-0.6&-0.7	0
O=C(COC(=O)CNC(=O)c1sc2ccccc2c1Cl)Nc1cc(Cl)cc(Cl)c1	3.1	-0.4	-11%	-2.1	-15	2	-2.2	3
C[C@@H]1CCC[C@]2(O[C@H](CCO)C[C@H](O)[C@H]2O)O1	?	-1.1	/	-5.0	-24	10	1.4	-3
O=C(COc1ccc2ccccc2c1Br)Nc1ccncc1	-2.8	0.4	-13%	-2.0	-13	12	1.0	-4
COc1ccc(C)cc1Nc1n[n+](-c2ccccc2)c(-c2ccc(C(=O)O)cc2)s1	-1.2	-3.0	/	0.2	-10	-3	5.1	-1
N#Cc1ccc(CNc2cnccn2)cc1	3.6	-0.7	3%	2.1	-11	29	-61	-8
CCOC(=O)COc1ccc(S(=O)(=O)NCCC2=CCCCC2)cc1	-2.6	-0.8	6%	1.1	-25	-2	/	-4
Cc1cccc2sc(NNC(=O)c3ccc(S(=O)(=O)N4CCc5ccccc5C4)cc3)nc12	?	1.2	/	-1.3	60*	-1	0.6	92*
COCCNC(=O)CS(=O)Cc1nc(-c2ccc(Cl)cc2)oc1C (stereo not given)	13	-0.4	0%	9.8	-5	2	-13	-24
Cc1ccc(-n2c(C)cc(C(=O)COC(=O)c3ccc[nH]c3=O)c2C)cc1C	0.1	0.2	-5%	-0.7	-19	10	?	/
O=S(=O)(c1ccccc1)n1ccc2ccccc21	3.0	0.2	-3%	-6.2	-3	-6	/	2
COc1ccc(C2C(C#N)=C(N)OC3=C2C(=O)CC(C)(C)C3)cc1Cn1cc([N+](=O)[O-])cn1 (stereo not given)	3.6	-0.1	/	-1.5	-5	-4	0.7	4
CCn1ncc(/C=N/NC(=O)c2cc(Cl)ccc2OC)c1C	4.6	0.2	14%	-9.1	-8	0	2.6	-3
O=C1NN=C(c2ccc(Br)cc2)CC1c1ccc(Cl)cc1 (stereo not given)	/	0.1	5%	-7.6	13	-3	7.6	-5
CCCc1cc(=O)oc2cc(OC(C)C(=O)NCC3CCC(C(=O)O)CC3)c(Cl)cc12 (stereo not given)	-4.6	0.2	/	0.9	-13	2	-0.7	2
Cc1nc2c3cc(F)ccc3n(Cc3ccccc3F)c2s1	-0.7	-0.5	-10%	1.2	-54	36	0.4	-2
Cc1cc(NC(=O)CCCN2C(=O)/C(=C\c3cccs3)SC2=S)no1	2.1	0.2	20%	/	-7	2	/	0
CCOC(=O)N1CCN(CC(O)COc2ccccc2[N+](=O)[O-])CC1 (stereo not given)	-1.9	1.2	-3%	0.6	-1	3	5.6	-3
Cc1nn(CC(=O)c2ccccc2)c(=O)c2nn(-c3ccccc3F)c(C)c12	-1.9	0.0	1%	-1.3	-2	32	-0.8	1
Cc1sc2nc(SCC(=O)Nc3ccc(S(=O)(=O)NCCCC(=O)O)cc3)[nH]c(=O)c2c1C	0.6	0.6	-1%	1.7	8	3	-2.6	-2
O=C(NCc1ccco1)C(Cc1ccccc1)NS(=O)(=O)c1cccc2nsnc12 (stereo not given)	0.9	1.5	18%	0.6	-2	0	/	-2
N#CCCn1cc(C(=O)N2CCCCC2)c(-c2cccc([N+](=O)[O-])c2)n1	4.8	-1.9	3%	-0.8	-7	10	1.6	-10
CC(=O)Nc1ccc(C=NNc2ccc(S(=O)(=O)Nc3ccccc3C(=O)O)cc2[N+](=O)[O-])cc1	/	1.1	1%	3.7	/	/	4.2	2
Cc1nnn(C23CC4CC(CC(C4)C2)C3)n1	-0.8	-1.3	21%	3.8	-26	-18	/	-1
CCOc1ccccc1C(C(=O)NC1CCCC1)N(C(=O)c1csnn1)C1CC1 (stereo not given)	-3.4	-0.5	/	3.5	2	-4	4.0	2
Cc1cc(C(=O)N2CCCC(C(=O)c3cccc4ccccc34)C2)nc(C)n1 (stereo not given)	-1.5	0.6	/	3.6	-8	5	-17	-1
Cc1oc2cc3oc(=O)c(CCC(=O)NCCCN4CCCC4=O)c(C)c3cc2c1C	?	-0.5	/	4.5	4	7	0.5	2
O=C(NC1CCCC1)c1ccc(Cn2c(=O)[nH]c3ccsc3c2=O)cc1	-2.3	0.1	-5%	0.7	14	2	3.5	2
NNC(=O)Cn1c(COc2ccc(Cl)cc2)nc2ccccc21	0.0	-0.4	4%	-4.2	-13	26	/	4
CCc1nn2c(N)c(/C=C3\C=Nc4ccccc43)c(=O)nc2s1	?	1.1&0.6	1%&5%	0.8&6.5	-9&-5	-8&0	-1.3	-2&-8
COc1ccc(CNc2nc(C)c([N+](=O)[O-])c(C)c2C#N)cc1	2.3	0.5	15%	3.7	-10	10	1.0	-1
O=c1[nH]c2cccnc2n1-c1cccc([N+](=O)[O-])c1	5.6	2.1	/	2.4	-4	15	?	3
COc1cccc(C(=O)CN(C(=O)c2ccc(Cl)cc2Cl)N2C(=O)c3ccccc3C2=O)c1	-0.3	-0.1	3%	/	14	7	/	0
Cc1nc2ccccc2nc(C)c1=NOCc1ccc(Cl)cc1Cl	2.9	1.3	9%	-2.2	6	13	/	-4
CCCNC(=O)COC(=O)/C=C/c1cccc(F)c1	1.1	0.5	-6%	1.7	-1	-15	-3.7	4
CC(=O)c1ccccc1NC(=O)COC(=O)/C=C/c1cccs1	0.2	-0.4	-10%	2.1	-4	1	3.1	-2
O=Cc1c(NCc2ccccc2)c2ccccc2[nH]c1=O	8.3	-5.1	/	-3.7	-1	-3	0.6	0
CC(Oc1ccccc1Br)C(=O)N1CCc2ccccc21 (stereo not given)	3.4	-0.5	-1%	0.4	19	33	/	-9
CC(C)CCN(C(=O)c1csnn1)C(C(=O)NC1CCCC1)c1ccccc1 (stereo not given)	-2.9	0.2	/	-4.9	10	2	-3.3	1
COc1ccc(CNC(=O)C(C)c2ccc([N+](=O)[O-])cc2)cc1 (stereo not given)	2.6	0.4	7%	-0.3	-14	-21	2.4	-4
CC(C)N1C(=O)CCC1C(=O)NCc1cccs1 (stereo not given)	2.0	1.4	-10%	-1.4	-10	5	-1.9	-1
O=C(NC(=S)Nc1ccc2[nH]c(=O)[nH]c2c1)c1ccccc1F	2.2	0.3	/	4.6	10	-1	-5.5	-4
COC(=O)c1ccc(C)c(NC(=O)CCc2cc(OC)c(OC)c(OC)c2)c1	0.5	-0.4	/	-2.4	-4	-10	/	1

New compounds follow.
molecule	RanGTP-Impb inh	Bfl-1 A1 inh	Vif TR-FRET	LANA-H2A inh	T cruzi repl	Calb FLC	MLL AF4-AF9 inh	Beta cell apopt
CCc1ccc(C(=O)COC(=O)CNC(=O)COc2ccccc2)cc1	-1.7	-0.3	-10%	8.4	8	-12	-3.1	-6
O=c1[nH]cnc2sc(-c3ccccc3)cc12	-0.9	-2.4	-12%	1.7	-10	-12	/	0
O=C(CN1C(=O)c2ccccc2S1(=O)=O)c1ccc2c(c1)OCCO2	-1.3	-2.6	/	-1.5	-8	7	/	-2
Cn1ncc(C#N)c1NC(=O)c1cc(-c2ccccc2Cl)on1	1.0	-0.8	-7%	2.1	-3	22	/	-9
O=C(O)c1cnn2c1NC(c1cccs1)CC2C(F)(F)F (stereo not given)	-1.1	-1.0	1%	3.1	1	-3	/	2
COc1ccc(C(=O)N/N=C(\C)CC(=O)Nc2ccc3c(c2)OCO3)cc1	0.4	0.7	-7%	-2.3	-7	-28	2.7	-4
C=CCOc1ccc(/C=C2\SC(N)=NC2=O)cc1OC	-0.5	-0.6	2%	-0.8	-5	8	-1.8	/
